Compound activity (PubChem)
Vaccinia stage = blocks a specific stage of Vaccinia orthopoxvirus infection, primary screen, cell-based, single point; Vaccinia-infected cells, mCherry/Venus stage reporter fluorescence; stronger effect = lower value; some inactives read as strong as hits; activity change (mCherry), % (no concentration beside the values); 89,000 compounds, 0.01% hits;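 active means mCherry past -33% and 40 or more points under the early reporter, replicates agreeing; inconclusive means past -33% without that gap or agreement; tested in A549 cells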;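 further: scaled between vehicle wells and reference inhibitor wells; 23 nL library stock went into each well; one replicate is shown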
Vaccinia stage Venus = further read-out of Vaccinia stage, marked with its call; activity change (Venus), %; measured here: Venus reporter, other viral stage;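 negative = less Venus signal; first of two replicates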
* marks the source's active call; other numbers are inactive results; ? = inconclusive; / = not tested or not shown; & = joins results of further samples.

SMILES	Vaccinia stage	Vaccinia stage Venus
C[C@H](CO)N1C[C@H](C)[C@@H](CN(C)S(=O)(=O)c2cn(C)cn2)Oc2cc(C3=CCCC3)ccc2S1(=O)=O	24	28
O=C(C1CCCCC1)N1CC(=O)N2[C@H](C1)[C@H](c1ccc(-c3ccccc3F)cc1)[C@@H]2CO	-19	-14
O=C(C[C@@H]1CC[C@H]2[C@@H](COC[C@H](O)CN2Cc2cc(F)cc(F)c2)O1)NC1CCCC1	8	11
C[C@@H]1CCCCO[C@H](CN(C)C)[C@@H](C)CN([C@@H](C)CO)C(=O)c2cc(NC(=O)Cc3ccccc3)ccc2O1	0	-2
CCCN(C)C[C@H]1Oc2cc(C#Cc3ccccc3)ccc2S(=O)(=O)N([C@H](C)CO)C[C@H]1C	-4	-8
COCCNC(=O)C[C@H]1CC[C@@H](NC(=O)NC2CCCC2)[C@H](CO)O1	-1	13
O=S(=O)(Cc1ccccc1)N1CCCCN2[C@@H](CO)[C@H](c3ccc(-c4cccnc4)cc3)[C@@H]2C1	-1	-16
COCCNC(=O)C[C@H]1C[C@H]2c3cc(NC(=O)CC4CC4)ccc3O[C@H]2[C@@H](CO)O1	7	6
COc1cccc(C#Cc2ccc([C@H]3[C@H](CO)N4C(=O)CN(C(=O)Cc5cccnc5)C[C@@H]34)cc2)c1	-15	-15
O=C(NCC[C@@H]1CC[C@H](NS(=O)(=O)c2ccccc2F)[C@H](CO)O1)c1ccc(F)cc1	-16	-12
C[C@H]1CN([C@@H](C)CO)S(=O)(=O)c2ccc(C#CC3CC3)cc2O[C@@H]1CN(C)Cc1cccnc1	-31	-35
CC(=O)N(C)C[C@H]1Oc2ncc(C#Cc3ccccn3)cc2C(=O)N([C@H](C)CO)C[C@@H]1C	21	17
C[C@@H]1CCCCO[C@H](CN(C)S(=O)(=O)c2ccc(F)cc2)[C@H](C)CN([C@@H](C)CO)C(=O)c2cc(NC(=O)c3ccccc3)ccc2O1	-26	-10
O=C1CN(S(=O)(=O)c2ccccc2)C[C@@H]2[C@H](c3ccc(Br)cc3)[C@@H](CO)N12	3	-14
COc1ccc(S(=O)(=O)N(C)C[C@@H]2Oc3c(NS(=O)(=O)c4ccc(C)cc4)cccc3C(=O)N([C@@H](C)CO)C[C@H]2C)cc1	5	5
CNC[C@@H]1Oc2ccc(NC(=O)Nc3ccc(F)cc3)cc2CC(=O)N([C@H](C)CO)C[C@@H]1C	15	4
C[C@@H]1CN([C@@H](C)CO)C(=O)c2cc(C#Cc3ccccc3)cnc2O[C@@H]1CN(C)Cc1ccccn1	-12&9	-7&9
C[C@H]1CN([C@@H](C)CO)C(=O)c2cccc(NS(=O)(=O)c3cccs3)c2O[C@H]1CN(C)Cc1ccc(-c2ccccc2)cc1	-7	-4
COCCNC(=O)[C@@H]1[C@@H](CO)[C@@H]2Cn3c(ccc(-c4ccccc4F)c3=O)[C@H]1N2S(C)(=O)=O	-3	-4
O=C(Nc1cc(Cl)cc(Cl)c1)N[C@@H]1CC[C@H](CCNS(=O)(=O)c2cccc(F)c2)O[C@H]1CO	?	/
O=C(C1CCCCC1)N1C[C@H]2[C@@H](c3ccccc31)[C@H](CO)N2C(=O)c1ccccc1F	-3	3
O=C(NC1CCCCC1)N1CC(=O)N2[C@H](CO)[C@@H](c3ccc(-c4ccncc4)cc3)[C@H]2C1	12	12
COc1ccc(COCC23N=C4SCCCN4[C@H](c4ccccc4O2)[C@H]3CO[Si](C)(C)C(C)(C)C)cc1	-16	-11
Cn1cnc(S(=O)(=O)N[C@@H]2C=C[C@@H](CC(=O)Nc3ccccc3)O[C@@H]2CO)c1	-2	-4
CCC(=O)N(C)C[C@@H]1Oc2ncc(-c3ccc(C(=O)N(C)C)cc3)cc2C(=O)N([C@H](C)CO)C[C@@H]1C	12	4
CNC[C@@H]1OCCCC[C@@H](C)Oc2ccc(NC(=O)CCCN(C)C)cc2C(=O)N([C@@H](C)CO)C[C@H]1C	5	6
COC(=O)C[C@H]1CC[C@H]2[C@H](COc3ccc(NC(=O)c4cc(C)on4)cc3C(=O)N2C)O1	8	8
COc1cccc(C#Cc2ccc3c(c2)O[C@H](CN(C)S(=O)(=O)c2ccccc2F)[C@@H](C)CN([C@@H](C)CO)S3(=O)=O)c1	-12	-5
COc1ccccc1CNC(=O)C[C@H]1CC[C@H]2[C@@H](COC[C@H](O)CN2C(=O)Nc2ccccc2)O1	-3	3
C[C@H](CO)N1C[C@H](C)[C@@H](CN(C)S(C)(=O)=O)Oc2cc(C#CC3CCCC3)ccc2S1(=O)=O	-29	-40
C[C@H]1CN([C@@H](C)CO)C(=O)c2cc(-c3cncnc3)cnc2O[C@H]1CN(C)Cc1ccc(F)cc1	10	5
C[C@@H]1CN([C@@H](C)CO)C(=O)c2cccc(NC(=O)Nc3ccc4c(c3)OCO4)c2O[C@@H]1CN(C)Cc1ccc(Cl)c(Cl)c1	-1	-6
CCC(=O)N1C[C@@H]2[C@H](c3ccccc31)[C@@H](CO)N2Cc1ccccc1F	4	3
C[C@H](CO)N1C[C@H](C)[C@H](CN(C)Cc2ccccc2)Oc2ccc(NC(=O)CCCCCC(=O)Nc3ccccc3N)cc2C1=O	-4	-3
COc1ccc(S(=O)(=O)N(C)C[C@H]2OCCCC[C@H](C)Oc3ccc(NS(C)(=O)=O)cc3C(=O)N([C@H](C)CO)C[C@H]2C)cc1	13	4
CNC[C@@H]1Oc2c(NC(=O)c3ccc(-c4nccs4)cc3)cccc2C(=O)N([C@H](C)CO)C[C@H]1C	10	-1
CN(C)C(=O)C[C@@H]1CC[C@H]2[C@H](COc3ccc(NS(=O)(=O)c4cccc(F)c4)cc3C(=O)N2C)O1	15	4
CO[C@H]1CN(C)C(=O)c2cc(NS(=O)(=O)c3ccccc3)ccc2OC[C@@H](C)N(Cc2cccnc2)C[C@H]1C	6	8
O=C(N[C@@H]1CC[C@H](CCn2cc(C3(O)CCCC3)nn2)O[C@@H]1CO)c1ccccc1F	2	0
CCCNC(=O)C[C@H]1CC[C@H]2[C@H](COc3ccc(NC(=O)Nc4cccc(C)c4)cc3C(=O)N2C)O1	6	3
C[C@H](CO)N1C[C@H](C)[C@H](CN(C)C)Oc2cc(C#Cc3ccccc3F)ccc2S1(=O)=O	-28	-22
CCC(=O)Nc1ccc2c(c1)C(=O)N(C)[C@H]1CC[C@@H](CC(=O)NCCN3CCCCC3)O[C@H]1CO2	2	4
C[C@@H]1CN([C@@H](C)CO)C(=O)c2cc(-c3cccnc3)cnc2O[C@@H]1CN(C)Cc1ccc(-c2ccccc2)cc1	?	/
CN(C)CC(=O)Nc1ccc2c(c1)[C@H]1C[C@H](CC(=O)N3CCN(C)CC3)O[C@@H](CO)[C@H]1O2	22	14
O=C([C@@H]1[C@@H](CO)[C@@H]2Cn3c(cccc3=O)[C@@H]2N1C(=O)C1CCCC1)N1CCOCC1	6	-2

Ordered by count of non-hydrogen atoms (lowest first): part of the list above.
SMILES	Vaccinia stage	Vaccinia stage Venus
CCC(=O)N1C[C@@H]2[C@H](c3ccccc31)[C@@H](CO)N2Cc1ccccc1F	4	3
C[C@H](CO)N1C[C@H](C)[C@H](CN(C)C)Oc2cc(C#Cc3ccccc3F)ccc2S1(=O)=O	-28	-22
CN(C)C(=O)C[C@@H]1CC[C@H]2[C@H](COc3ccc(NS(=O)(=O)c4cccc(F)c4)cc3C(=O)N2C)O1	15	4
C[C@H](CO)N1C[C@H](C)[C@H](CN(C)Cc2ccccc2)Oc2ccc(NC(=O)CCCCCC(=O)Nc3ccccc3N)cc2C1=O	-4	-3

Next results:
SMILES	Vaccinia stage	Vaccinia stage Venus
Cc1noc(C)c1NC(=O)N(C)C[C@@H]1Oc2ccc(NS(=O)(=O)c3ccccc3)cc2C(=O)N([C@@H](C)CO)C[C@@H]1C	11	18
O=C(c1ccccc1)N1C[C@H]2[C@@H](c3ccccc31)[C@H](CO)N2Cc1ccccc1F	3	4
COc1cccc(-c2ccc([C@@H]3[C@H](CO)N4CCCCN(CC5CC5)C[C@@H]34)cc2)c1	-19	-14
CCCN1[C@@H]2Cn3c(ccc(-c4ccc(OC)cc4)c3=O)[C@H]1[C@@H](C(=O)NCC)[C@@H]2CO	-3	-4
C[C@H]1CN([C@@H](C)CO)S(=O)(=O)c2ccc(Br)cc2O[C@H]1CN(C)Cc1cncnc1	24	6
COc1ccc(NC(=O)Nc2ccc3c(c2)C(=O)N([C@H](C)CO)C[C@H](C)[C@@H](CN(C)C(=O)NC(C)C)OCCCC[C@H](C)O3)cc1	-1	0
O=C(C[C@H]1C[C@H]2c3cc(NC(=O)C4CCC4)ccc3O[C@H]2[C@H](CO)O1)NCc1cc(F)ccc1F	-3	-1
COc1ccc2c3c([nH]c2c1)[C@@H](CO)N(C)CC31CCN(S(=O)(=O)c2cccc(F)c2)CC1	2	4
CS(=O)(=O)N1CCCCN2[C@H](C1)[C@H](c1ccc(C#Cc3ccccn3)cc1)[C@@H]2CO	42	12
C[C@@H]1CN([C@@H](C)CO)C(=O)c2cc(NC(=O)c3ccccc3)ccc2O[C@@H](C)CCCCO[C@H]1CN(C)C(=O)Nc1ccccc1	-8	-7
C[C@@H]1CN([C@@H](C)CO)C(=O)c2cc(C#CCN(C)C)cnc2O[C@H]1CN(C)C(=O)NC1CCCCC1	28	14
C[C@@H]1CN([C@H](C)CO)C(=O)c2cc(NC(=O)CCC(F)(F)F)ccc2O[C@@H]1CN(C)CC1CC1	-1	2
COc1ccc(NC(=O)N(C)C[C@H]2Oc3ccc(N(C)C)cc3CC(=O)N([C@H](C)CO)C[C@@H]2C)cc1	9	7
C[C@@H]1CN([C@H](C)CO)C(=O)Cc2cc(NC(=O)c3ccncc3)ccc2O[C@@H]1CN(C)Cc1ccc(C(=O)Nc2ccccc2N)cc1	12	1
COCC(=O)Nc1ccc2c(c1)C(=O)N(C)C[C@H](OC)[C@@H](C)CN(CCc1ccccc1)[C@@H](C)CO2	-5	0
C[C@H]1CN([C@@H](C)CO)C(=O)c2cc(C#CC3CC3)cnc2O[C@@H]1CN(C)Cc1cccc(C(=O)O)c1	2	-2
C[C@@H]1CN([C@H](C)CO)C(=O)c2cc(NS(=O)(=O)c3cccs3)ccc2O[C@@H]1CN(C)S(C)(=O)=O	8	0
Cc1noc(C)c1S(=O)(=O)N(C)C[C@@H]1OCCCC[C@@H](C)Oc2ccc(NC(=O)c3ccccc3)cc2C(=O)N([C@@H](C)CO)C[C@@H]1C	-11	-11
O=C(Cc1cccnc1)N1CC2(C1)[C@H](c1ccccc1)[C@@H](CO)N2C(=O)C1CCCCC1	11	9
COc1ccc2c3c([nH]c2c1)[C@H](CO)N(C(=O)CN1CCOCC1)CC31CCN(C)CC1	18	5
Cc1noc(C)c1S(=O)(=O)Nc1ccc2c(c1)C(=O)N([C@@H](C)CO)C[C@@H](C)[C@@H](CN(C)C(=O)NC(C)C)OCCCC[C@@H](C)O2	15	13
O=S(=O)(N[C@H]1CC[C@H](CCn2cc(-c3ccccc3F)nn2)O[C@@H]1CO)c1ccc(Cl)cc1	?	/
COc1ccc(CN(C)C[C@@H]2Oc3ccc(NC(=O)Cc4ccccc4)cc3CC(=O)N([C@@H](C)CO)C[C@@H]2C)cc1	-5	-4
CO[C@H]1CN(C)C(=O)c2ccc(NC(=O)Nc3cccc(F)c3)cc2OC[C@H](C)NC[C@@H]1C	3	6
COCC#Cc1cnc2c(c1)C(=O)N([C@H](C)CO)C[C@@H](C)[C@H](CN(C)C(=O)Nc1cc(F)ccc1F)O2	27	5
C[C@H](CO)N1C[C@H](C)[C@H](CN(C)C)Oc2cc(C#CC3CCCCC3)ccc2S1(=O)=O	?	/
C[C@H](CO)N1C[C@H](C)[C@H](CN(C)C(=O)CN2CCOCC2)Oc2ncc(C#C[C@@H](C)O)cc2C1=O	9	15
C[C@H](CO)N1C[C@H](C)[C@H](CN(C)C(=O)c2cccnc2)Oc2ncc(C3=CCCC3)cc2C1=O	6	12
CCCN(C)C[C@@H]1Oc2cc(-c3ccc(F)cc3)ccc2S(=O)(=O)N([C@H](C)CO)C[C@@H]1C	-15	-15
C[C@H](CO)N1C[C@H](C)[C@@H](CN(C)C(=O)Nc2ccc(N3CCN(C)CC3)cc2)OCc2cn(nn2)CCCC1=O	8	9

Compound profiles, from the list above. Values in the order: Vaccinia stage	Vaccinia stage Venus
COc1ccc2c3c([nH]c2c1)[C@H](CO)N(C(=O)CN1CCOCC1)CC31CCN(C)CC1 as listed: 18	5
C[C@H](CO)N1C[C@H](C)[C@H](CN(C)C(=O)c2cccnc2)Oc2ncc(C3=CCCC3)cc2C1=O as listed: 6	12
Cc1noc(C)c1S(=O)(=O)Nc1ccc2c(c1)C(=O)N([C@@H](C)CO)C[C@@H](C)[C@@H](CN(C)C(=O)NC(C)C)OCCCC[C@@H](C)O2 as listed: 15	13
C[C@H](CO)N1C[C@H](C)[C@@H](CN(C)C(=O)Nc2ccc(N3CCN(C)CC3)cc2)OCc2cn(nn2)CCCC1=O as listed: 8	9
O=C(Cc1cccnc1)N1CC2(C1)[C@H](c1ccccc1)[C@@H](CO)N2C(=O)C1CCCCC1 as listed: 11	9

(more compounds)
SMILES	Vaccinia stage	Vaccinia stage Venus
CNC[C@H]1Oc2cc(C#CCN(C)C)ccc2S(=O)(=O)N([C@H](C)CO)C[C@@H]1C	-8	-2
Cc1noc(C)c1NC(=O)N(C)C[C@@H]1OCCCC[C@@H](C)Oc2ccc(NC(=O)Nc3ccc(C(F)(F)F)cc3)cc2C(=O)N([C@H](C)CO)C[C@@H]1C	13	6
C[C@H](CO)N1C[C@H](C)[C@@H](CN(C)C(=O)Cc2ccncc2)Oc2cc(C3=CCCC3)ccc2S1(=O)=O	16	26
CN(C)C(=O)c1cccc(-c2ccccc2[C@@H]2[C@@H](C#N)N(C(=O)C3CCCC3)[C@@H]2CO)c1	4	0
CCC(=O)N1[C@H](C#N)[C@@H](c2ccccc2-c2ccccc2)[C@@H]1CO	4	0

The list is partial. The share of hits here may be higher or lower than overall.
